Bioassay records from PubChem BioAssay.
gsp antagonist – qHTS for Antagonists of gsp, the Etiologic Mutation Responsible for Fibrous Dysplasia/McCune-Albright Syndrome: qHTS; gsp-mutant cells, cAMP HTRF, 30 min; control for the full effect not named in the record; Potency, µM (top dose mostly 76.9 µM), for inactives: top-dose activity change, negative = inhibition, actives largely listed as inhibitors; 0.4% of 340,000 active; AID 624288, 2012; active = falling curve of any shape with a large fitted effect; inconclusive = falling curve, mostly with a smaller effect; inactive = flat or rising curve; cell line not stated here;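 further: intracellular cAMP measured with PDE inhibitor Ro 20-1724 present during compound exposure; potency means the concentration at half of the fitted maximal effect; on the % scale 0 is the no-effect control and ±100 the full control effect; nearly all actives have a fitted effect of over 65% in size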
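Cells in G418 medium, seeded 16-24 h, 37C; buffer exchange to DPBS + 1 mM CaCl2, 0.5 mM MgCl2, 0.05% BSA; cpds in DMSO + […] (300 uM stock), 30 min 37C; HTRF cAMP detection.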
Menin MLL FP FL – qHTS Assay for Inhibitors Targeting the Menin-MLL Interaction in MLL Related Leukemias: Competition With Fluorescein Labeled MLL-derived Peptide | Fluorescence polarization, fluorescein-MLL peptide displacement from menin | FP activity change, % at 61.4 µM | 290,000 tested, under 10 active | AID 1766, 2009; inconclusive = falling polarisation curve, or a change in total fluorescence; inactive = total fluorescence flat and polarisation flat or rising; no compound was filed as active; the % refers to the polarisation; negative = inhibition;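 further: % of control where 0% means no effect; inhibitors lower the polarisation; unlabelled MLL peptide was the positive control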
TRPML1 inh – qHTS for Inhibitors of the Human Mucolipin Transient Receptor Potential 1 (TRPML1); Mucolipin-1 (Homo sapiens), Q9GZU1; TRPML1-inducible cells, Ca2+ dye fluorescence, FDSS; stronger effect = lower value; inhibition of EC80 agonist-evoked calcium signal; activity change, negative = inhibition, % (test concentration not listed); 0.02% of 390,000 active; AID 624415, 2012; in the data active means activity change below about -50%; inconclusive means about -30% to -50%; inactive means above about -30%;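 further: stimulus is agonist 54-4 at its EC80 concentration; on the % scale 0 is the no-effect control and ±100 the full control effect; compound concentration not given in the record; the text of the record puts the active cut at -80%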
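Calcium fluorescence in TRPML1-DL cells induced overnight with Tet: a 110 s read after compound pin addition, then a 110 s antagonist read after challenge with 54-4 at 4 uM final (EC80).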
ClpP mod – qHTS Assay for Activators of ClpP. ATP-dependent Clp protease proteolytic subunit (Bacillus subtilis (strain 168)), P80244. purified B. subtilis ClpP, FRET peptide cleavage, 20 min. Potency, µM (highest dose often 57.5 µM), without a hit: at the highest dose activity change, negative = active. 1.9% of 340,000 active. AID 651965, 2013; active = well fitted falling curve with a large enough effect; inconclusive = small, poorly fitted or top-dose-only effect; inactive = no such curve, though single readings can be large or run the other way; further: potency means the concentration at half of the fitted maximal effect; the source files actives as falling curves though it sought activators and does not explain the sign; nearly all actives have a fitted effect of over 65% in size; many hits overshoot -100%
Target sequence (P80244 whole entry, looked up): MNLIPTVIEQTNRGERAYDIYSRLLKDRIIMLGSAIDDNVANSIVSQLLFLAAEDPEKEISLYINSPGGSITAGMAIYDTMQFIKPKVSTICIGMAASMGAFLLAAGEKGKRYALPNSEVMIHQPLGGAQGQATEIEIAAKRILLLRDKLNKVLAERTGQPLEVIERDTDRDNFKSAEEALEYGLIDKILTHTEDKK
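Buffer: 100 mM Tris/HCl pH8, 100 mM KCl, 0.05% low protease BSA, 2.5% glycerol, 0.01% Tween-20. ClpP 10 microg/mL final; 20 min RT; delta FRET normalized to ADEP and DMSO controls.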
TRPV1 potentiator – HTS Assay for Compounds that Act as Potentiators of the Vanilloid Receptor 1. Transient receptor potential cation channel subfamily V member 1 (Homo sapiens), Q8NER1. TRPV1-expressing cells, Fluo-8 calcium influx, capsaicin EC20 potentiation; host cell line not named in the record; control for the full effect not named in the record. potentiation, % at 8.33 µM. 0.02% of 320,000 active. AID 540277, 2011; active means potentiation above 80%; inconclusive means 30% to 80%; inactive means below 30%; further: 0% is about no effect
Target sequence (Q8NER1 whole entry, looked up): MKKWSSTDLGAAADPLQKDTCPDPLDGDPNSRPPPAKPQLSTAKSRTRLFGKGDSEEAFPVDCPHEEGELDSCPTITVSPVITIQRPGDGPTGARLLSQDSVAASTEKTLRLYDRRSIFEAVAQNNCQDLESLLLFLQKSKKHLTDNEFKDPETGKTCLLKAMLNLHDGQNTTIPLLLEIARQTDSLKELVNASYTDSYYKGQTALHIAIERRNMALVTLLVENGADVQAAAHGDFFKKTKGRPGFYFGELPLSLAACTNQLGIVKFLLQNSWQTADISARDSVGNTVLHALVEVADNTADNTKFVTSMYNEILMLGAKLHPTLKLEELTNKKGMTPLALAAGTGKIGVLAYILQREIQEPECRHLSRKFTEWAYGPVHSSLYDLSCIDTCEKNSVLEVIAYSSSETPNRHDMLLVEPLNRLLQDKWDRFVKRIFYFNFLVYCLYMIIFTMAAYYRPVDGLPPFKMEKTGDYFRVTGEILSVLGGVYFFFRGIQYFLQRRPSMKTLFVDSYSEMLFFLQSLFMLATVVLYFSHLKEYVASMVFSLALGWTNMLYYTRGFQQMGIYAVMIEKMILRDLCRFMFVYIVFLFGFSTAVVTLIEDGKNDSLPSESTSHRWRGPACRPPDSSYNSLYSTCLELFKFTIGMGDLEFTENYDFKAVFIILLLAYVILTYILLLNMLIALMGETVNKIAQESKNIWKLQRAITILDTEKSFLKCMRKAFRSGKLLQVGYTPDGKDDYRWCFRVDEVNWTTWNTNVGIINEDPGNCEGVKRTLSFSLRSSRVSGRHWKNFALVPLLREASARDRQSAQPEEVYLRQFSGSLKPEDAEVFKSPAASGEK
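TRPV1-expressing cells were cultured overnight at 35.5C and loaded with Fluo-8 calcium dye for 40 to 90 min at room temperature. After a 10 s baseline, compound was added and calcium influx was read kinetically for 3 min (ex 480/em 520 nm).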
Sfp inh – qHTS Assay for Inhibitors of Bacillus subtilis Sfp phosphopantetheinyl transferase (PPTase). 4'-phosphopantetheinyl transferase ffp (Bacillus subtilis), Q9F4F7. Biochemical Sfp PPTase activity, qHTS. 3.5% of 310,000 active. Potency, µM, inactives show max response, negative = inhibition, hits mostly inhibitors. AID 1490, 2009; active means well fitted inhibition curve with a large enough effect; inconclusive means small, poorly fitted or top-dose-only effect, or another doubt; inactive means no such curve, though single readings can be large or run the other way;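 further: the enzyme is Sfp with the accession as filed and its product quenches rhodamine fluorescence; potency means the concentration at half of the fitted maximal effect; 0% = enzyme reaction without inhibitor and -100% = no enzyme wells; top concentration of the series not given in the record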
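Step 1, compound plus 15 nM Sfp-PPTase, 15 min, room temperature. Step 2, add rhodamine-CoA (5 uM) and BHQ-2-YbbR (12.5 uM). Step 3, read 525/598 nm fluorescence at 0 and 30 min.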
gsp ag – qHTS for Agonist of gsp, the Etiologic Mutation Responsible for Fibrous Dysplasia/McCune-Albright Syndrome: qHTS | gsp mutant cells, cAMP HTRF, 30 min; control for the full effect not named in the record | 0.13% of 340,000 active | Potency, µM (top dose mostly 76.9 µM), for the others: top-dose activation (cAMP increase), hits mostly activators; active = well fitted activation curve with a large enough effect; inconclusive = small, poorly fitted or top-dose-only effect, or another doubt; inactive = no such curve, though single readings can be large or run the other way; cell line not stated here;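 further: phosphodiesterase inhibitor Ro 20-1724 added with compounds to block cAMP breakdown; potency means the concentration at half of the fitted maximal effect; nearly all actives have a fitted effect of over 60% in size; about a fifth of the inactives were tested at one dose only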
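Cells in DMEM/10% FBS with G418 were pretreated with compounds in DMSO plus […] (300 uM stock) for 30 min at 37C. cAMP was measured by HTRF (cAMP-d2 plus anti-cAMP antibody-K) after 30 min at room temperature.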
The depositor's hits bear a star; u = inconclusive; x = not tested or not shown; & = joins results of further samples; [ ] = another dose, or the depositor's remark.

(1) CCCNS(=O)(=O)c1ccc(CCC(=O)NCC2CCCO2)cc1 (stereo not drawn)
(2) CC1Cc2ccccc2N1C(=O)CCN1C(=O)C2C3C=CC(C3)C2C1=O (stereo not drawn)
(3) O=C1C2C3C=CC(CC3)C2C(=O)N1/N=C/c1ccc(O)cc1 (stereo not drawn)
(4) CC(=O)Nc1ccc(S(=O)(=O)N2CCN(C(=O)CCC3CCCC3)CC2)cc1
(5) COc1ccc(S(=O)(=O)N(CC(=O)Nc2cccnc2)c2ccccc2OC)cc1
(6) Cn1nc(C(F)(F)F)c(C(=O)Nc2ccc(F)cc2F)c1Cl
(7) CCOCC(=O)N1CCN(c2ccc([N+](=O)[O-])cc2)CC1
(8) O=C1CCN(CCc2ccccc2)CCN1[C@H](CO)c1ccccc1
screen / no.,1,2,3,4,5,6,7,8
gsp antagonist,8%,1%,3%,-25%,-7%,9%,-8%,4%
Menin MLL FP FL,0.7,3.9,0.2,-0.1,-0.3,-0.4,1.7,-1.0
TRPML1 inh,10,-10,5,-1,-5,-9,-15,-20
ClpP mod,1.2%,-2.7%,-2.3%,-1.7%,0.1%,x,-1.3%,-1.6%&-1.2%
TRPV1 potentiator,-15,-18,8,1,-14,9,0,-13
Sfp inh,-9%,6%,8%,12%,17%,12%,17%,1%
gsp ag,2%,u,23%,1%,-31%,15%[15.4 µM],0%,1%

(9) COC(=O)Cc1ccc(NC(=S)Nc2ccc(N3CCOCC3)cc2)cc1
(10) O=C(NC1CCCC1)c1ccc([N+](=O)[O-])s1
(11) COc1ccccc1NS(=O)(=O)c1ccc(C)c(C(N)=O)c1
(12) COCCn1nnnc1CN(CCCN1CCOCC1)Cc1cc2c(C)ccc(C)c2[nH]c1=O
(13) O=c1ccc(-c2ccccc2)n[nH]1
(14) CN1CC2([N+](=O)[O-])CC=C(Oc3ccccc3)C([N+](=O)[O-])(C1)C2 (stereo not drawn)
(15) Cc1cc(Cl)ccc1NC(=O)C(=O)N/N=C/c1ccc2c(c1)OCO2
(16) CCOC(=O)c1cnc(-n2nc(C)cc2C)nc1-n1nc(C)cc1C
screen / no.,9,10,11,12,13,14,15,16
gsp antagonist,-10%,8%,18%,-2%,5%,0%,8%,1%
Menin MLL FP FL,-4.5,-0.9,-0.4,2.6,0.3,0.9,-5.9,4.6
TRPML1 inh,8,6,-12,1,-2,28,-9,19
ClpP mod,x,-1.1%,0.6%,-11%,-3.7%,-0.7%,x,-3.4%
TRPV1 potentiator,13,-21,-11,-7,1,2,-6,-5
Sfp inh,-17%,-16%,10%,-43%,12%,-13%,8%,9%
gsp ag,-40%[inhibitor],-5%[15.4 µM],12%,-1%,-9%,-2%,3%,-7%

Full records as entered above.
CN1CC2([N+](=O)[O-])CC=C(Oc3ccccc3)C([N+](=O)[O-])(C1)C2 (stereo not drawn) as listed: gsp antagonist: 0%; Menin MLL FP FL: 0.9; TRPML1 inh: 28; ClpP mod: -0.7%; TRPV1 potentiator: 2; Sfp inh: -13%; gsp ag: -2%
Cc1cc(Cl)ccc1NC(=O)C(=O)N/N=C/c1ccc2c(c1)OCO2 as listed: gsp antagonist: 8%; Menin MLL FP FL: -5.9; TRPML1 inh: -9; ClpP mod: x; TRPV1 potentiator: -6; Sfp inh: 8%; gsp ag: 3%
COc1ccccc1NS(=O)(=O)c1ccc(C)c(C(N)=O)c1 as listed: gsp antagonist: 18%; Menin MLL FP FL: -0.4; TRPML1 inh: -12; ClpP mod: 0.6%; TRPV1 potentiator: -11; Sfp inh: 10%; gsp ag: 12%

Continued:
(17) COc1ccc(C(CC(=O)O)NC(=O)COc2ccccc2OC)cc1OC (stereo not drawn)
(18) Cc1ccccc1NC(=O)CSc1nc2c(c(-c3ccco3)c1C#N)CCCC2
(19) CCOCCCn1c(SCC(=O)Nc2cccc(OC)c2)nc2ccccc2c1=O
(20) Cc1ccc(OCC(=O)NN2C(=O)c3ccccc3C2=O)cc1
(21) O=C(CSc1nnc(CNC(=O)c2ccc(F)cc2)o1)Nc1ccc2c(c1)OCO2
(22) N#CCCN(C(=O)COC(=O)C1CCN(c2ccc(C(F)(F)F)cn2)CC1)c1ccc(F)cc1
(23) COc1ccc2[nH]c(=O)c(CN(Cc3ccccc3OC)Cc3nnnn3CC3CCCO3)cc2c1 (stereo not drawn)
(24) CCOc1ccc(-n2nnc3c(=O)n(C/C=C/c4ccccc4)cnc32)cc1
screen / no.,17,18,19,20,21,22,23,24
gsp antagonist,2%,4%,-17%,10%,10%,4%,-18%,2%
Menin MLL FP FL,3.6,-2.6,0.6,0.0,x,x,-1.2,2.6
TRPML1 inh,-1,-10,23&15,7,2,-13,10,-2
ClpP mod,-1.1%,0.0%,-0.5%&1.8%,0.9%,0.6%,u,u,-19%
TRPV1 potentiator,12,-10,-3,12,-2,-9,0,28
Sfp inh,9%,14%,3%,-5%,13%,x,u,14%
gsp ag,-2%,u,-27%,2%,2%[15.4 µM],5%[15.4 µM],-10%,u

Two entries from above, with values under each structure.
Second line of a record: gsp antagonist, Menin MLL FP FL, TRPML1 inh, ClpP mod, TRPV1 potentiator, Sfp inh, gsp ag
4: CC(=O)Nc1ccc(S(=O)(=O)N2CCN(C(=O)CCC3CCCC3)CC2)cc1
    -25%, -0.1, -1, -1.7%, 1, 12%, 1%
5: COc1ccc(S(=O)(=O)N(CC(=O)Nc2cccnc2)c2ccccc2OC)cc1
    -7%, -0.3, -5, 0.1%, -14, 17%, -31%

New compounds follow:
(25) Cc1ccc(-n2c(C)cc(C(=O)OCC(=O)N(CC(C)C)C3CCS(=O)(=O)C3)c2C)cc1 (stereo not drawn)
(26) CC(C)n1c(Nc2ccccc2)nc2ccccc21
(27) COc1ccc(CSc2nc(CSC)cc(N3CCOCC3)n2)cc1
(28) COC(=O)c1ccc(CN2CCN(CCc3ccccc3)C(CCO)C2)cc1 (stereo not drawn)
(29) CCOc1ccc(Cn2c(SCCCCC#N)nc3c2c(=O)n(C)c(=O)n3C)cc1OCC
(30) Cc1cccc(C(=O)N2CCC(c3nc(-c4ccc(S(=O)(=O)N5CCOCC5)cc4)no3)CC2)c1
(31) CCOC(=O)c1nnn(-c2nonc2N)c1-c1ccccc1Cl
(32) CSc1nc(N(CCO)CCO)c2sc3nc(-c4ccco4)c4c(c3c2n1)CCC4
screen / no.,25,26,27,28,29,30,31,32
gsp antagonist,0%,6%,-9%,2%,21%,2%,3%,-12%
Menin MLL FP FL,5.9,1.3,-0.4,-3.2,2.3,4.0,0.1,-0.7
TRPML1 inh,4,11,-2,3,28,-5,11,5
ClpP mod,0.9%,-2.6%,1.6%,x,-1.6%,0.0%,-0.2%,-28%
TRPV1 potentiator,0,10,5,10,2,-6,-1,-1
Sfp inh,4%,4%,-4%,11%,-6%,23%,3%,18µM*
gsp ag,-1%,-103%[inhibitor],-2%,13%,1%,14%,-10%,-6%

(33) COC(=O)COc1ccc(S(=O)(=O)N2CCN(c3ccccc3F)CC2)cc1
(34) CCOc1ccccc1NC(=O)C12CC3CC(C1)CC(c1ccc(C)cc1)(C3)C2
(35) Cc1ccc(N2CC(C(=O)Nc3ccc(S(=O)(=O)N4CCCC4)cc3)CC2=O)cc1 (stereo not drawn)
(36) C/C=C(\C)C(=O)NCCN1C2=NC[C@H](Cc3ccccc3)N2C[C@H]1Cc1ccc(O)cc1
(37) O=C(COc1ccc(-c2ccccc2)cc1)N1CCN(C(=O)c2cccs2)CC1
(38) CC(=O)C(Cc1ccc(Cl)nc1)(Cc1ccc(Cl)nc1)C(C)=O
(39) CCOC(=O)N1CCN(Cc2nc(N)nc(Nc3ccc(Oc4ccccc4)cc3)n2)CC1
(40) O=C(Nc1ccc(Cl)cn1)C1CC1
screen / no.,33,34,35,36,37,38,39,40
gsp antagonist,u,5%,-17%,1%,-15%,6%,11%,8%
Menin MLL FP FL,1.0,3.1,0.0,-11,3.9,-1.1,0.5,-5.9
TRPML1 inh,-1,2,1,-9,0,12,7,u
ClpP mod,1.2%,-0.1%,-1.2%,-0.7%,x,-0.4%,-0.8%,-3.7%
TRPV1 potentiator,-8,4,10,5,-4,17,19,15
Sfp inh,3%,11%,7%,-10%,6%,5%,-3%,17%
gsp ag,-23%,19%,-5%,10%,4%[15.4 µM],11%,-11%,8%

(41) CCOc1cccc(-c2c(C(=O)N/N=C/c3sccc3C)nnn2-c2nonc2N)c1
(42) Cc1ccc(NC(=O)NC2CC(=O)N(c3ccc4c(c3)OCCO4)C2)cc1 (stereo not drawn)
(43) COc1cc2c(C(=O)NCc3ccc4c(c3)OCO4)cn(CC(C)C)c(=O)c2cc1OC
(44) COc1ccc2ccccc2c1/C=N/NC(=O)c1ccc(C)nc1
(45) CC(=O)Nc1ccc(SCc2ncc(-c3ccccc3)o2)cc1
(46) COc1ccc(-c2nc(CS(=O)CC(=O)NC3CCCC3)c(C)o2)cc1OC (stereo not drawn)
(47) O=C1C=C(c2ccccc2)OC(=O)C1C(=O)c1ccccc1 (stereo not drawn)
screen / no.,41,42,43,44,45,46,47
gsp antagonist,u,9%,5%,-11%,-5%,2%,-18%
Menin MLL FP FL,x,x,-0.4,-7.0,-1.7,x,-2.1&0.2
TRPML1 inh,2,1,15,26,24,6,6
ClpP mod,-7.1%,0.7%,-7.5%,-3.7%,x,4.4%,-1.0%
TRPV1 potentiator,-18,-10,11,-1,23,-17,20&16
Sfp inh,16%,x,10%,-2%,-9%,6%,14%&20%
gsp ag,-1%,-32%[inhibitor],-44%[inhibitor],u,18%,-35%[inhibitor],11%
